Screening results (PubChem BioAssay)
A1 inh: caspase 3/7 activation in MEF A1-2A-BIM cells, primary screen, A1 inhibitor project, cell-based, luminescence, HTS. Caspase-Glo 3/7 luminescence, 3 h; percent of clofoctol response, vehicle zero. caspase activation, % (no concentration beside the values). 330,000 compounds, 0.066% hits;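 active = over half of replicate activation scores above 10%, or exactly half above 10 with the replicate mean above 10; inconclusive = replicate mean below 10 yet half the replicates above 10; inactive = over half of replicates below 10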;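 note: wells of about 30 µL received 50 nL stock; many hits fall short of the cut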
LANA-H2A inh: blockers of LANA interaction with H2A/H2B – biochemical, FP readout, HTS, primary screen | Protein LANA1 (Human herpesvirus 8 type P (isolate GK18)), Q9QR71 | cell-free LANA-H2A/H2B peptide, fluorescence polarization | inhibition, % (concentration not given with the values) | 320,000 compounds, 0.6% hits; in the data active = inhibition mostly above about 10%, no sharp cut-off; inactive = mostly below about 6.7%;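 note: stock transfer was 7.5 nL into about 10 µL; 0% = median of vehicle wells and 100% = median of positive control wells; one replicate is shown; the record names a cut of 25% in any replicate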
HNF4A DNA FP: change in binding of human HNF4A to DNA, primary screen, biochemical, fluorescence polarization, FITC-DNA; Hepatocyte nuclear factor 4-alpha (Homo sapiens), P41235; 1 h; activity change, % at 10 µM; 360,000 compounds, 0.3% hits; AID 1224865, 2016; in the data active = activity change above about 30%, passing the limit was not always enough;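 note: controls were the assay level and a saturating level of protein; the project sought stronger binding though the title names inhibitors; some compounds called inactive have numbers as strong as hits; positive values seem to mean higher polarization but the record does not say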
Target sequence (P41235 whole entry, looked up): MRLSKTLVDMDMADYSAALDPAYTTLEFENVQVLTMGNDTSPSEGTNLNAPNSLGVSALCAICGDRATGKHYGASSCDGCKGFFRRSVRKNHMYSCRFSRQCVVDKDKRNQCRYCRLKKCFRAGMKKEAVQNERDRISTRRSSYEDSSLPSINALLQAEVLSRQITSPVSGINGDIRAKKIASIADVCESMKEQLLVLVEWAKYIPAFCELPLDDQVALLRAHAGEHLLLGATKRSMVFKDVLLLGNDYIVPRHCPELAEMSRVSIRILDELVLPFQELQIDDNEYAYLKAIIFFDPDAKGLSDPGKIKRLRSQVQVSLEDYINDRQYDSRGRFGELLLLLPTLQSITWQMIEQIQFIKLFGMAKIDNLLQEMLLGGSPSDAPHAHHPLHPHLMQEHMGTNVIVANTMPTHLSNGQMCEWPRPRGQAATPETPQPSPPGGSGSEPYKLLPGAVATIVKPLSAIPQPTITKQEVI
Vif A3G: inhibitors of Vif binding to APOBEC3G peptide, primary screen, biochemical, TR-FRET, GST-Vif 1-94, biotin-A3G peptide, dose response retest (AID 1117319) | Virion infectivity factor (Human immunodeficiency virus type 1 group M subtype B (isolate … | TR-FRET GST-Vif / biotin-A3G peptide binding; higher % means a stronger effect; test concentration not given here; strong numbers were not always called active | inhibition, %, or IC50 in µM where a hit was titrated | 260,000 compounds, 0.57% hits;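 active = above the screen mean plus three standard deviations and confirmed in dose response; inconclusive = results disagree or hit not tested in dose response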;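 note: Vif residues 1-94 fused to GST binding biotinylated APOBEC3G peptide 110-148; 0% = full assay without inhibitor and 100% = GST in place of GST-Vif; retest series ran down from 100 µM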
B2AR ag: beta2AR agonists driving receptor internalization, primary screen, cell-based, FAP fluorogen, flow cytometry | Beta-2 adrenergic receptor (Homo sapiens), P07550 | Am2.2-beta2AR cells; reference of the scale not given here | response, % (no concentration beside the values) | 340,000 compounds, 0.43% hits | AID 504454, 2011;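 active = response above a set limit, near 3 SD of response in nonfluorescent compounds, cut at about 42% in these data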;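 note: stock transfer was 100 nL into about 11 µL; a reference agonist was the positive control; negative values mostly stem from fluorescent compounds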
Target sequence (P07550 whole entry, looked up): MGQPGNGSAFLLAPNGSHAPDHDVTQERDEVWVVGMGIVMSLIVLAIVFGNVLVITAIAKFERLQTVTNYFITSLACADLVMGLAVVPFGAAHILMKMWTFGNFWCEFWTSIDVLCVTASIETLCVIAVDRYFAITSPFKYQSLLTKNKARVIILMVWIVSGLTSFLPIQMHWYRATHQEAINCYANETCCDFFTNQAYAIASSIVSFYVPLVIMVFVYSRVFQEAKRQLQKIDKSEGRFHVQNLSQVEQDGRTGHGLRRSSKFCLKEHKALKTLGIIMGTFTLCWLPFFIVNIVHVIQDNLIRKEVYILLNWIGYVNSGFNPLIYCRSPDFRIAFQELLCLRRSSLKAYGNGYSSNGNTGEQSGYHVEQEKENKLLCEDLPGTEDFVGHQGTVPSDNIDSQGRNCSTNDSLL
UCH37 DUB inh: inhibitors of human UCH37 deubiquitinase, primary screen, biochemical, Ub-AMC cleavage, fluorescence; 330,000 compounds, 0.33% hits; inhibition, % (test concentration not listed); purified proteasome/UCH37; Ubiquitin carboxyl-terminal hydrolase isozyme L5 (Homo sapiens), Q9Y5K5;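 active = mean of two replicates above 20%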;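 note: 0% = compound-free wells with enzyme and 100% = wells lacking proteasome; stock transfer was 100 nL into about 20 µL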
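Test system – human UCH37 enzyme supplied as purified proteasome complex · Incubation – 30 min preincubation with enzyme, 25 min cleavage at room temperature · Detection – AMC fluorescence from Ub-AMC cleavage, excitation 355 nm, emission 460 nm · Benchmarks – no-proteasome wells (full inhibition) and compound-free wells (no inhibition)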
E coli growth: E. coli growth inhibition, primary screen, OD600. AID 1053175, 2014. OD600 absorbance (no concentration beside the values). 330,000 compounds, 0.21% hits. Escherichia coli growth, 23 h; hits give low values;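 active = OD600 absorbance below the run mean of sample wells minus 3.6 SD, in any replicate, cut at about 0.56 in these data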;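 note: stock transfer was 300 nL into about 60 µL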
Starred values were filed as active, the others as inactive; ? = inconclusive; . = not tested or not shown; & = joins results of further samples.

SMILES	A1 inh	LANA-H2A inh	HNF4A DNA FP	Vif A3G	B2AR ag	UCH37 DUB inh	E coli growth
CN(C(=O)COC(=O)COc1ccc(Cl)cc1Cl)c1c(N)n(Cc2ccccc2)c(=O)[nH]c1=O	0.4	4.7	-1.3	-1%	4	4.2	0.68
CN(C)S(=O)(=O)N1CCN(C(=O)N(c2ccccc2)c2ccccc2)CC1	-1.1	-3.9	2.1	0%	6	-1.0	0.69
COc1cc2c(cc1OC)CN(Cc1cc(OC)c(O)c(OC)c1)CC2	0.7	3.6	0.4	27%	0	-1.4	0.71
COc1cc(-n2nnnc2SCC(=O)N2CCN(c3ccc(F)cc3)CC2)c(OC)cc1Cl	.	.	-0.4	0%	8	2.0	0.73
CC(=O)C1=C(C)NC(SCc2cccc3ccccc23)=C(C#N)C1c1ccco1 (stereo not given)	-0.7	-7.5	-1.6	.	13	0.5	0.75
COc1ccc(C(=O)N/C(=C\c2cccs2)C(=O)N2CCN(C)CC2)cc1OC	1.8	-3.4	-2.5	2%	2	4.5	0.63
COc1ccc(C2/C=C\CN(C(=O)c3ccc(C)cc3)CC(=O)N2Cc2ccc(F)cc2)cc1 (stereo not given)	0.1	-7.5	0.7	.	9	5.5	.
C=CCn1cccc(C(=O)Nc2cc(OC)c(OC)c(OC)c2)c1=O	0.8	3.5	1.0	.	4	7.4	0.65
CC(C)CC(NC(=O)OC(C)(C)C)C(=O)NC(C(=O)NC(C)C(N)=O)C(C)C (stereo not given)	-0.2	5.5	7.6	-3%	0	1.7	0.71
COC(=O)c1ccccc1NC(=O)CCc1ccccc1	-1.8	2.5	-2.5	-3%	-2	-0.3	0.68
CCC(=O)N1CCN(c2ccc(Cl)cc2NC(=O)c2ccc(N3CCCC3)c([N+](=O)[O-])c2)CC1	-1.7	2.7	-0.4	-2%	-3	0.8	0.82
COc1cc(NC(=O)c2cccc(Cl)c2)c(OC)cc1NC(=O)CN1CCCCC1	0.8	-7.4	0.4	-3%	-2	-0.1	0.67
COc1cc(/C=N\NC(=O)C2CC3C=CC2C3)ccc1O (stereo not given)	-0.5	-0.6	-4.1	.	-5	.	.
COc1ccccc1C(=O)NCC(=O)N/N=C/c1ccncc1	0.7	1.6	0.7	.	-19	.	.
C[C@H]1COC(=O)[C@@H](Cc2ccc(F)cc2)CC/C=C\C[C@H](CC(=O)NCCO)C(=O)N1	0.0	2.7	2.4	.	0	0.8	.
CCOC(=O)c1c(C)[nH]c(NC(=O)Nc2ccc(NC(C)=O)cc2)c1C	0.0	3.3	2.2	-10%	0	2.7	0.67
CCCCN(CC)CCCNC(=O)c1cc2c(=O)[nH]c3ccccc3c2s1	0.6	-0.5	2.0	-7%	-4	-181	0.65
Cc1occc1-c1nnc(SCC(=O)NCCc2ccccc2)n1C(C)c1ccccc1 (stereo not given)	0.8	3.0	1.8	29%	14	2.6	0.71
O=C(NCCOC(=O)c1ccc(S(=O)(=O)N2CCOCC2)cc1)c1cccnc1	-0.4	-5.4	-1.5	3%&-2%	5	0.7	0.76
COc1ccc(CN2CCC(n3nccc3NC(=O)C3CCCC3)CC2)c(OC)c1	0.4	-3.4	0.1	.	7	2.3	0.69
Cc1nc(CS(=O)(=O)c2ccc(Cl)cc2)sc1C(=O)O	0.2	0.3	1.9	-8%	-2	3.1	0.65
O=C(NCCS(=O)(=O)N1CCCCC1)c1ccccc1	0.3	-2.1	6.2	1%	-2	-1.6	0.65
COCCN(C(=O)COC(=O)CCc1ccccc1)c1c(N)n(Cc2ccccc2)c(=O)[nH]c1=O	.	.	0.6	4%	-4	0.0	0.65
COc1cc(OC)cc(C(=O)N[C@H](C(=O)Nc2ccccc2N2CCOCC2)C(C)C)c1	-0.1	4.4	5.2	11%	-1	1.3	0.73
N#CCCn1cc(C(=O)Nc2ccc(C(=O)O)cc2)c(-c2cccs2)n1	-0.4	-2.2	2.0	2%	1	1.0	0.67

Sorted by the number under LANA-H2A inh (highest first): three from the list above.
SMILES	LANA-H2A inh
Cc1nc(CS(=O)(=O)c2ccc(Cl)cc2)sc1C(=O)O	0.3
CN(C)S(=O)(=O)N1CCN(C(=O)N(c2ccccc2)c2ccccc2)CC1	-3.9
COc1cc(NC(=O)c2cccc(Cl)c2)c(OC)cc1NC(=O)CN1CCCCC1	-7.4

(listing goes on)
SMILES	A1 inh	LANA-H2A inh	HNF4A DNA FP	Vif A3G	B2AR ag	UCH37 DUB inh	E coli growth
CC(=O)c1ccc(S(=O)(=O)Oc2ccc(C(=O)O)cc2Cl)cc1	-0.9	15	1.0	1%	0	1.2	0.68
CCOC(=O)c1cc2c(=O)c3cc(C)ccc3oc2nc1C	-10	1.1	12	-103%	4	-9.9	0.73
NNC(=O)c1ccc(COCC(F)(F)F)cc1	-0.2	-9.0	7.7	2%	-5	4.5	0.66
Cc1ccc(SCC(=O)NCc2ccccc2)cc1	0.0	1.2	-5.5	.	2	-0.2	0.65
Cc1ccc(NC(=O)[C@@H]2CCCN2C(=O)c2cccs2)cc1S(=O)(=O)N1CCCCC1	.	.	0.7	.	0	0.9	0.69
COCCn1c(C)cc(C(=O)COC(=O)CCN2C(=O)c3ccccc3C2=O)c1C	0.8	2.4	-0.9	21%	0	2.4	0.69
CCC(C)NC(=O)C1(N2C(=O)c3ccccc3C2=O)CCCC1 (stereo not given)	.	.	0.8	-2%	-2	0.7	0.67
O=C(O)c1ccccc1NS(=O)(=O)c1cccc2cccnc12	-0.1	0.8	-1.3	?	0	2.6	0.78
CCc1c(C)nc(N)nc1OCC(F)(F)C(F)F	0.2	5.6	6.5	-2%	4	-0.6	0.69
Cn1c(=O)c2c(ncn2CC(O)CNc2ccc(F)cc2)n(C)c1=O (stereo not given)	-1.2	2.8	-0.4	.	-2	2.7	0.7
C=CCNC(=S)Nc1c(N)n(C)c(=O)n(C)c1=O	-0.5	-8.1	3.4	-3%	14	3.0	0.74
COc1cc(OC)c(/C=N/N2CCN(c3ccccc3OC)CC2)c(OC)c1	-0.5	3.6	2.9	.	-7	.	.
Nc1c(S(=O)(=O)c2cccc(Cl)c2)c2nc3ccccc3nc2n1/N=C/c1ccc(O)c(O)c1	-0.2	-1.1	.	-9%	.	.	.
CC(C)CCNC(=O)CN(Cc1ccco1)C(=O)c1snc(C(N)=O)c1N	1.1	-3.0	4.5	2%	5	-64	0.68
CCC(C(=O)NC1CC(C)(C)NC(C)(C)C1)c1ccccc1 (stereo not given)	-0.4	14*	-0.3	.	-2	3.0	0.67
Cn1cc(/C=N/n2cnc3scc(-c4ccccc4)c3c2=O)c2ccccc21	0.2	-1.0	-3.5	-9%	-1	.	.
O=C(COC(=O)c1ccc2c(c1)C(=O)N(c1cccc3ncccc13)C2=O)c1ccc(Cl)cc1	-0.4	-4.2	0.1	-1%	63*	2.6	0.69
CC(=O)C[C@H](O)CC(=O)[C@H]1OC(=O)CC/C=C\Cc2ccccc21	-1.5	1.8	-1.7	.	7	0.5	0.74
C=CCn1c(=N)n(CC(=O)OCC)c2ccccc21	0.9	-3.2	-3.1	4%	7	3.6	0.71
COc1cccc(NC2CC(=O)N(CCc3ccccc3)C2=O)c1 (stereo not given)	0.1	-0.1	0.2	2%	0	1.8	0.81
Cc1ccc(NC(=O)COC(=O)CC2SC(N3CCCC3)=NC2=O)cc1 (stereo not given)	1.0	4.5	1.2	-8%	-2	3.1	0.7
COc1cc(OC)cc(C(=O)NCC(=O)N2CCN(Cc3ccccc3)CC2)c1	0.2	-7.1	9.2	.	4	4.0	0.72
CCCOC(=O)Nc1cc(OC)ccc1[N+](=O)[O-]	-0.4	0.7	0.5	.	-4	6.0	0.67
Cc1cccc(C)c1NC(=O)CNC(=O)c1ccccc1	-0.2	-1.0	-1.1	.	8	-0.9	0.68
O=C(Nc1c2c(nn1-c1ccccc1)CS(=O)(=O)C2)c1cc2ccccc2o1	0.3	-0.2	2.4	.	3	1.4	0.69

(next part)
SMILES	A1 inh	LANA-H2A inh	HNF4A DNA FP	Vif A3G	B2AR ag	UCH37 DUB inh	E coli growth
O=C(CNC(=O)c1ccco1)Nc1ccc(F)c(Cl)c1	0.0	2.7	3.1	.	1	-2.0	0.66
CCN(C(=O)COC(=O)c1ccc(=O)n(Cc2ccccc2)n1)C1CCS(=O)(=O)C1 (stereo not given)	.	.	0.5	2%	1	4.9	0.7
CC(Sc1nc(C2CC2)n(-c2ccccc2)n1)C(=O)c1c(N)n(C)c(=O)n(C)c1=O (stereo not given)	-0.8	4.3	-0.5	.	-4	-1.5	0.7
COc1ccccc1N1CCN(C(=O)c2ccc(COc3cccc4c3OC(C)(C)C4)cc2)CC1	-1.0	1.0	5.5	0%	6	3.7	0.69
CC(C)OP(=O)(c1ccc(N(C)C)cc1)C(O)c1ccc(Br)cc1 (stereo not given)	-0.5	2.6	1.9	8%	-1	2.2	0.65
CCOC(=O)C1CCCN(C(=O)CN2CCN(Cc3ccc(Cl)cc3)C2=O)C1 (stereo not given)	0.5	3.6	.	-2%	.	3.8	0.78
Cc1ccc(C(=O)NCCCc2ccccc2)s1	-0.6	1.0	3.2	1%	-14	0.3	0.63
CC(C)c1nnc(NC(=O)C2CCCN2C(=O)Nc2ccc(F)cc2)s1 (stereo not given)	1.2	-1.8	2.2	.	-2	3.3	0.64
Nc1c(Br)c(=O)[nH]c(=O)n1-c1ccccc1	-1.2	1.4	-3.9	0%	-7	4.0	0.68
O=C(CN(C(=O)c1csnn1)c1ccc(Br)cc1)NC1CCCCC1	-0.2	-11	1.3	.	1	2.1	0.67
O=C(Nc1ccc(F)cc1)C(c1ccccc1)N1CCN(CC(=O)N2CCOCC2)CC1 (stereo not given)	-1.1	-4.6	1.0	.	.	0.9	0.69
Cc1cc(C)nc(NCC(O)CNc2ccccc2Cl)n1 (stereo not given)	0.4	1.9	1.4	15%	-1	-0.8	0.7
CCC1CCc2sc(C(=O)NNC(=O)c3ccncc3)cc2C1 (stereo not given)	-0.5	0.8	1.9	6%	-11	3.2	0.68
CN(C)c1ccc(/C=C(\C#N)c2ccccn2)cc1	-8.5	-3.5	31	.	-31	4.0	0.7
Cc1ccc(S(=O)(=O)Nc2nc(C)cc(NN)n2)cc1	1.0	-2.5	0.0	-6%	6	0.5	0.67
CCC(CC)C(=O)N1CCN(Cc2nc3ccccc3c(=O)[nH]2)CC1	0.1	-2.1	1.7	-7%	3	1.9	0.72
Cc1nc([N+](=O)[O-])cn1C(C)C	0.9	-1.6	2.0	.	10	7.8	0.65
COc1cccc(Nc2nc3ccc(OC)cc3s2)c1	-2.7	0.9	-1.1	-7%	7	2.1	0.65
Cc1ccc2sc(-c3ccc(NC(=O)c4cc(-n5cnnc5)ccc4Cl)cc3)nc2c1	-0.8	-4.2	0.8	-2%&0%	21	-24	0.69
O=C(CSc1nc(-c2ccccc2)cc(C(F)(F)F)n1)NCc1cccs1	1.2	0.7	-1.6	.	-22	-0.6	0.67
CCOC(=O)N1CCN(C(=O)C(CC)c2ccccc2)CC1 (stereo not given)	-0.2	-1.0	-1.3	1%	-7	-7.3	0.7

An excerpt from above, limited to HNF4A DNA FP, Vif A3G and LANA-H2A inh.
canonical_smiles | HNF4A DNA FP | Vif A3G | LANA-H2A inh
O=C(Nc1ccc(F)cc1)C(c1ccccc1)N1CCN(CC(=O)N2CCOCC2)CC1 (stereo not given) | 1.0 | . | -4.6
Cc1cc(C)nc(NCC(O)CNc2ccccc2Cl)n1 (stereo not given) | 1.4 | 15% | 1.9
